# Source: PubChem (several laboratories)
# PKD1 inh = inhibitors of human PKD1 kinase, biochemical, fluorescence polarization; PKD1 kinase fluorescence polarization assay; inhibition, %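 (about 10 µM by stock and volumes)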; 0.056% of 200,000 active; AID 797, 2007;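 active = inhibition of 50% or more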;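 also: controls were vehicle for no effect and a reference inhibitor for full effect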
# INS promoter inh = inhibitors of insulin promoter-driven GFP, primary screen, imaging, TRM-6 cells (human fetal islet line), eGFP reporter, cell count | reporter expression induced with tamoxifen | inhibition, % at 2 µM | 0.9% of 130,000 active | AID 1273, 2008;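 active = inhibition above the mean plus 3 SD, with well images judged a real hit on visual review, cut at about 60% in these data, passing the limit was not always enough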
# RGS16-Gao = modulators of RGS16 binding to Galphao, primary screen, biochemical, human proteins, multiplexed bead flow cytometry; 0.38% of 220,000 active; AID 1441, 2008; bead-based flow cytometry RGS16-Galphao binding, fluorescence; actives lie on both sides; binding response (% of control), % at 10 µM;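 active = below 25% or above 175%, edge rows of some plates excepted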;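 also: Galphao activated by GDP with aluminum fluoride before binding; 100% = wells without compound and 0% = beads without RGS; some results beyond the cut were filed as inactive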
# Target sequence (O15492 whole entry, looked up): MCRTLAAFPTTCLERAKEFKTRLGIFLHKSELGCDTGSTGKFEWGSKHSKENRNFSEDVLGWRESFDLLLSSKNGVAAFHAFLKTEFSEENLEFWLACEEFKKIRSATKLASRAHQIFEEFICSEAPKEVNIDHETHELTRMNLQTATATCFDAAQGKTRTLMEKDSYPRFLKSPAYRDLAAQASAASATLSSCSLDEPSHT
# Target sequence (P09471 whole entry, looked up): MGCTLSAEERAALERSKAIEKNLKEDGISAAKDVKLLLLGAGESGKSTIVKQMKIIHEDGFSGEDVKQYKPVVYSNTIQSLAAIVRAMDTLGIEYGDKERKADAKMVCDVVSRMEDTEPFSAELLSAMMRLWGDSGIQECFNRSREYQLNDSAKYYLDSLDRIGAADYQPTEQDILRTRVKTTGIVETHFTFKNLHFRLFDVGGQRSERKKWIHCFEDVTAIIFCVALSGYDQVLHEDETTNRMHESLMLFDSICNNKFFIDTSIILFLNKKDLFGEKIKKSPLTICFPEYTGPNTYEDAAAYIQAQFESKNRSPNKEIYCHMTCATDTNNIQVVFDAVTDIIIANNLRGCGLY
# HSV augment = enhancers of HSV replication in host cells, fold increase, host cell viability; 0.005% of 220,000 active; AID 1956, 2009; maximum fold increase; HSV replication augmentation in cells;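 active = peak rise of 1.5-fold or more in the series; tested in PC3 cells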;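 also: first round at 10 µM; read as green reporter fluorescence; hits show the peak of a series up to 25 µM; 1 = signal of infected wells without compound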
# GALR2 agonist = GALR2 receptor agonists, primary screen, cell-based; GALR2-expressing cells, agonist activation read-out; activation, %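 (tested at 5 µM)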; 0.48% of 140,000 active; AID 803, 2007;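 active = above mean plus 3 SD of all compounds, about 5% in these data, not always enough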;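 also: 0% = vehicle buffer wells and 100% = reference agonist at full effect; tested in CHO reporter cells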
# Target sequence (O43603 whole entry, looked up): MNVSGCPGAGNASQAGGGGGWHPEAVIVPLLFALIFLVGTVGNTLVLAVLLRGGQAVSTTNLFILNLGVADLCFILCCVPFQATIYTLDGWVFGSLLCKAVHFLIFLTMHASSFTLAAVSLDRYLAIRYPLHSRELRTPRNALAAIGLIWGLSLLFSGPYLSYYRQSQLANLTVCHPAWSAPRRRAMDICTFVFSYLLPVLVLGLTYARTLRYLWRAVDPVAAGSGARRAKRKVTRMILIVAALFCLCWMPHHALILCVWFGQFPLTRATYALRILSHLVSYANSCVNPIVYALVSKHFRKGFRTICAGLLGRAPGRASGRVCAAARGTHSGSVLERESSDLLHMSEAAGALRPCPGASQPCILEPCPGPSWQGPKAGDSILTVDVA
# INS promoter inh cell count = second read-out of INS promoter inh, no call of its own (marks repeat the call); normalized cell count, %; measured here: cell count, toxicity; reference of the scale not given here;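 cells exposed to compound for 48 h; stained nuclei by imaging scaled within each plate; lower means fewer cells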
# HSV augment primary fold = further read-out of HSV augment, marked with its call; fold increase; compound at 10 µM; measured here: primary screen fold increase 10 uM; tested in PC3 cells;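 GFP signal in the first replicate; 1 = infected wells without compound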
# Starred values were filed as active, the others as inactive; i = inactive; · = not tested or not shown.
SMILES,PKD1 inh,INS promoter inh,INS promoter inh cell count,RGS16-Gao,HSV augment,HSV augment primary fold,GALR2 agonist
O=C(NC1CC1)c1cc(-c2ccco2)nc2ccccc12,·,·,·,75,i,1,·
CS(=O)(=O)Nc1ccc(C(=O)NCc2ccc3c(c2)OCO3)cc1,0,-57,140,99,i,0.84,0.2
Cc1ccc(-c2csc3nc(-c4ccncc4)[nH]c(=O)c23)cc1,·,·,·,105,i,1.1,·
COCCNC(=O)CNC(=S)N(CCCN1CCOCC1)Cc1cccs1,0,·,·,107,i,0.99,·
CCn1c(CCCOc2ccc(Cl)cc2Cl)n[nH]c1=S,-5,·,·,108,i,0.92,·
COC(=O)c1ccc(COC(=O)Cc2n[nH]c(=O)c3ccccc23)cc1,0,·,·,97,i,0.87,·
CCc1nnc(NC(=O)COc2ccc([N+](=O)[O-])cc2)s1,0,·,·,101,i,0.94,·
O=C(COc1ncnc2ccc(Br)cc12)NCc1ccc2c(c1)OCO2,-5,-9,83,102,i,0.91,-1.0
O=C(O)/C=C/c1cnc2ccccc2c1,-5,·,·,95,i,0.88,·
COc1ccc(-n2c(Cc3cccn3C)nnc2SCC(=O)Nc2ccc3c(c2)OCCO3)cc1,-6,·,·,93,i,1.2,-2.3
Fc1ccc(-n2cc(CNCCc3ccccn3)c(-c3ccccc3Cl)n2)cc1,4,·,·,97,i,0.71,·
CN1C(=O)/C(=N\OC(=O)c2cccc3ccccc23)c2ccccc21,22,7,133,100,i,0.84,-1.9
COc1cccc2c1OCC(C(=O)NCc1ccc(Cl)cc1Cl)=C2,-2,4,104,110,i,0.78,-1.7
COc1ccc(/C=N/Nc2cc(N3CCCC3)nc(N3CCCC3)n2)cc1,3,-17,142,106,i,0.7,·
Cc1ccc(C)c(NC(=O)Cn2nc(-c3ccccc3)nc2-c2ccccc2)c1,-14,42,113,96,i,0.92,2.3
Cc1oc(-c2ccccc2F)nc1CN1CCC(C(=O)NCc2cccnc2)CC1,-2,·,·,94,i,1.1,-2.3
Cc1cc(NS(=O)(=O)c2ccccc2)cc(Cl)c1O,-10,·,·,114,i,0.94,-1.2
CCOc1ccc(-c2nn(-c3ccccc3)cc2/C=C2\SC(=S)N(C3CCS(=O)(=O)C3)C2=O)cc1 (centres undefined),-2,11,100,101,i,0.94,-4.0
CCOC(=O)c1c(NC(=O)Cn2cnc3scc(-c4ccc(C)cc4)c3c2=O)sc(C)c1C,6,·,·,103,i,1.1,-0.1
Cn1c(=O)c2c(nc(NCCO)n2CCc2ccccc2)n(C)c1=O,·,·,·,69,i,1,·

# 2 records picked at random from those above:
SMILES,PKD1 inh,INS promoter inh,INS promoter inh cell count,RGS16-Gao,HSV augment,HSV augment primary fold,GALR2 agonist
COCCNC(=O)CNC(=S)N(CCCN1CCOCC1)Cc1cccs1,0,·,·,107,i,0.99,·
CS(=O)(=O)Nc1ccc(C(=O)NCc2ccc3c(c2)OCO3)cc1,0,-57,140,99,i,0.84,0.2

# The main list resumes, starting 2 compounds before the break.
SMILES,PKD1 inh,INS promoter inh,INS promoter inh cell count,RGS16-Gao,HSV augment,HSV augment primary fold,GALR2 agonist
CCOC(=O)c1c(NC(=O)Cn2cnc3scc(-c4ccc(C)cc4)c3c2=O)sc(C)c1C,6,·,·,103,i,1.1,-0.1
Cn1c(=O)c2c(nc(NCCO)n2CCc2ccccc2)n(C)c1=O,·,·,·,69,i,1,·
CCCN1CCN(CCCNC(=O)Cn2nc(-c3ccc(C)cc3)ccc2=O)CC1,-13,-3,82,102,i,0.93,-0.3
Cc1cccc(C(=O)NNS(=O)(=O)c2ccccc2)c1O,-6,-40,105,100,i,0.92,·
CCCN1CCN(C(=S)Nc2ccc(SC(F)F)cc2)CC1,0,50,146,110,i,0.95,·
Cc1ccc(CN=Cc2[nH]c3ccc(Br)c(Cl)c3c2O)cc1,-9,·,·,101,i,1.1,-3.0
CCN1C(=O)C(CC(=O)Nc2ccc(C)cc2C)Nc2cc(S(=O)(=O)N(C)C)ccc21 (centres undefined),-3,-83,83,106,i,0.93,·
Cc1cccn2c(=O)c(C=O)c(N3CCCCC3)nc12,-10,·,·,104,i,1.1,·
O=S(=O)(NCCc1ccccn1)c1cccs1,-3,17,75,102,i,1,-1.2
O=C(CSC1=Nc2ccccc2C2=NC(c3ccccc3)C(=O)N12)NC1CCCCC1 (centres undefined),-2,-3,114,128,i,0.87,-1.8
CCCCOC(=O)C(C)Sc1n[nH]c(=O)[nH]c1=O (centres undefined),-6,·,·,85,i,1.2,·
COc1cccc(C2N(c3ccccc3)CCN2c2ccccc2)c1OC,1,·,·,98,i,0.99,·
CC(NC(=O)COC(=O)c1ccc([N+](=O)[O-])s1)c1ccccc1 (centres undefined),2,·,·,104,i,0.9,-0.9
CCC(OC(=O)c1cccs1)C(=O)NCc1ccc2c(c1)OCO2 (centres undefined),-2,-43,115,76,i,0.9,-3.1
O=S(Cc1ccc(Cl)cc1)CC(O)COCc1ccc(Cl)cc1 (centres undefined),-4,25,103,102,i,0.93,-0.9
COc1ccc(Cc2noc(-c3ccc([N+](=O)[O-])cc3)n2)cc1OC,·,·,·,100,i,0.96,·
CCN1CCN(CCOCCOc2ccccc2-c2ccccc2)CC1,-4,·,·,100,i,1,·
C#CCOCCOCCOCCNc1nc(N2CCN(C(=O)C([C@@H](C)CC)n3cc(C(N)Cc4ccc(O)cc4)nn3)CC2)nc(N2CCN(C(=O)[C@H](CCC(=O)O)n3cc(C(N)CO)nn3)CC2)n1 (some centres undefined),5,·,·,106,i,0.88,·
Cc1nc(N)sc1C(=O)N/N=C/c1ccccc1[N+](=O)[O-],-3,18,51,108,i,1,·
OCCCc1nc2n(n1)C(c1cccs1)C=C(c1ccc(Br)cc1)N2 (centres undefined),-19,·,·,109,·,·,0.4
Cc1nn(CCCC(=O)Nc2cnn(Cc3ccc(F)cc3)c2)c(C)c1[N+](=O)[O-],·,·,·,100,i,1,·
O=C1N(c2ccccc2)C[C@@H]2C[C@@H](c3cccc4c3OCO4)N3CCC[C@@]123,5,·,·,100,i,0.92,·

# Sorted by the number under HSV augment primary fold (ascending): some entries from above.
compound,HSV augment primary fold
COC(=O)c1ccc(COC(=O)Cc2n[nH]c(=O)c3ccccc23)cc1,0.87
O=C(O)/C=C/c1cnc2ccccc2c1,0.88
CCn1c(CCCOc2ccc(Cl)cc2Cl)n[nH]c1=S,0.92
CCc1nnc(NC(=O)COc2ccc([N+](=O)[O-])cc2)s1,0.94
Cc1nc(N)sc1C(=O)N/N=C/c1ccccc1[N+](=O)[O-],1
Cc1cccn2c(=O)c(C=O)c(N3CCCCC3)nc12,1.1

# (cont.)
SMILES,PKD1 inh,INS promoter inh,INS promoter inh cell count,RGS16-Gao,HSV augment,HSV augment primary fold,GALR2 agonist
Cc1nc(N2CCN(Cc3ccc4c(c3)OCO4)CC2)c2cc(-c3ccccc3)sc2n1,0,·,·,98,i,0.95,·
Cn1cnc(S(=O)(=O)NCc2ccccc2)c1,3,6,111,98,i,0.96,-0.1
COc1ccccc1CCn1c(N)c(C#N)c2nc3ccccc3nc21,-1,-32,122,95,i,0.86,2.0
CC(C)[C@H](NC(=O)OC(C)(C)C)c1nnc(SCC(=O)Nc2ccc(Br)cc2)o1,0,-62,82,103,i,1,-1.9
COC(=O)c1sc(N2C(=O)C(=O)/C(=C(/O)c3ccc(C)cc3)C2c2ccco2)nc1C (centres undefined),·,·,·,107,i,1.1,·
NS(=O)(=O)c1ccc(NN=C2CCCCC2)c([N+](=O)[O-])c1,-12,4,89,109,i,0.93,-1.4
CCOc1cc(N2CCOCC2)c(OCC)cc1NC(=O)COC(=O)c1ccccc1C,-1,13,50,116,i,0.78,-0.9
CC(=O)c1sc(NC(=O)c2ccco2)nc1-c1ccccc1,2,·,·,104,i,0.84,-1.8
COc1ccc(C)cc1NC(=O)CN1CCN(C/C=C/c2ccccc2)CC1,-8,-16,83,104,i,0.75,-2.0
O=C(CSc1ncnc2c1oc1ccccc12)NCc1ccc(F)cc1,-17,·,·,74,i,0.91,-2.1
FC(F)(F)c1cnc(-n2cc[nH]c2=S)c(Cl)c1,-1,35,66,108,i,1.3,-2.4
CC(=O)N1c2ccccc2C(C)(C)C2CCC(C)CC21 (centres undefined),4,-100,135,101,i,1.1,-0.9
Cc1ccc(C(=O)NC(=S)NNC(=O)CCN2CCOCC2)cc1,-3,7,82,110,i,0.94,·
CCC1=Nc2cc(C(=O)NCc3cccnc3)ccc2Sc2ccc(C)cc21,·,·,·,101,i,0.67,·
Cc1ccc(CNC(=O)COC(=O)c2cnccn2)cc1,-1,11,277,98,i,1.2,-0.9
Cc1cc(Cl)c(S(=O)(=O)N2CCN(c3ccc(F)cc3)CC2)cc1OCC(N)=O,-12,67,101,49,i,1,-2.0
CC(C)(C)C(=O)Nc1ccc(C(=O)Nc2cccnc2)cc1,3,15,106,97,i,0.67,-3.5
Cc1ccc(S(=O)(=O)N2CCC(C)CC2)cc1[N+](=O)[O-],-2,·,·,110,i,1.1,·
CC1(C)CC(=O)C(/C=N/n2c(C(F)(F)F)nc3ccccc3c2=O)=C(O)C1,9,-13,72,126,i,1.1,-1.6
CCn1c(SCC(=O)N(C)C2CCS(=O)(=O)C2)nnc1-c1ccccc1 (centres undefined),-8,·,·,104,i,0.92,·

# 3 entries out of the list, arranged by SMILES length, low to high:
SMILES,PKD1 inh,INS promoter inh,INS promoter inh cell count,RGS16-Gao,HSV augment,HSV augment primary fold,GALR2 agonist
FC(F)(F)c1cnc(-n2cc[nH]c2=S)c(Cl)c1,-1,35,66,108,i,1.3,-2.4
O=C(CSc1ncnc2c1oc1ccccc12)NCc1ccc(F)cc1,-17,·,·,74,i,0.91,-2.1
COC(=O)c1sc(N2C(=O)C(=O)/C(=C(/O)c3ccc(C)cc3)C2c2ccco2)nc1C (centres undefined),·,·,·,107,i,1.1,·

# Next section.
SMILES,PKD1 inh,INS promoter inh,INS promoter inh cell count,RGS16-Gao,HSV augment,HSV augment primary fold,GALR2 agonist
COc1ccc(COC(=O)N/N=C(\C)CC(=O)Nc2ccc(Cl)cc2)cc1,-9,-21,97,102,i,1,0.3
CCNc1nc(NCC)nc(N/N=C/c2ccc(O)c(OC)c2)n1,·,·,·,104,i,0.88,·
Nc1ccc2nn(-c3cccc4ccccc34)nc2c1,-13,-3,113,101,i,0.99,0.2
CCOC(=O)CSc1nc(C)c(C(C)=O)cc1C#N,-4,·,·,102,i,0.95,-1.2
Cc1ccc(Cc2cnc(N3C(=N)SC(c4ccccc4)C3=O)s2)cc1 (centres undefined),-3,·,·,104,i,0.94,-1.3
Cc1cccc(Cn2c(N(C)Cc3ccccc3)nc3c2c(=O)[nH]c(=O)n3C)c1,-2,·,·,101,i,1.1,1.1
Cc1cc(NC(=S)N(Cc2cccc(Br)c2)CC2CCC(C(=O)O)CC2)ccc1Cl (centres undefined),6,·,·,107,i,1,·
O=C1c2ccccc2N2C(=O)c3ccccc3C2N1O (centres undefined),7,·,·,99,i,1,0.6
CCCOCC(O)CC(Cc1ccccc1)C(=O)NN (centres undefined),·,·,·,99,i,1.2,·
Brc1cc2c(cc1/C=N/Nc1nc(N3CCCCC3)nc(N3CCCCC3)n1)OCO2,-4,0,108,49,i,0.89,·
CC(=O)Nc1cc(C)c2nc(NC(C)=O)sc2c1,·,·,·,105,i,0.95,·
O=C(NN=C1CCC(=NNC(=O)c2ccccn2)CC1)c1ccccn1,1,·,·,118,i,1,·
Nc1ccc(Nc2nc(-c3cc4ccccc4oc3=O)cs2)cc1,-3,33,88,93,i,0.74,·
CCCSC(=S)c1c(C)[nH]n(-c2ccccc2)c1=O,·,·,·,101,i,0.71,·
CC(NC(=O)CSc1nc2c(cc1C#N)CN(C)CC2)c1ccccc1 (centres undefined),-3,·,·,99,i,0.91,-0.9
N/C(=N\OC(=O)Cc1ccccc1)c1ccncc1,-6,·,·,105,i,1,·
COc1ccc(-n2c3c(cc(C#N)c2=O)C(=O)CCC3)cc1,-1,·,·,100,i,1,·
Cc1ccc(S(=O)(=O)N2CCC(=O)N(C(COCc3ccc(C(F)(F)F)cc3)C(C)C)CC2)cc1 (centres undefined),-2,5,81,107,i,0.8,-0.6
Cc1ccc(NC(=O)Nc2cccc(Cl)c2)c(C(=O)O)c1,8,·,·,104,i,0.92,·
CCN(CC)C(=N)/C(C#N)=N/Nc1ccccc1,·,·,·,103,i,1.1,·
CC1(C)NC(=O)N(CC(O)CN2CCCC2)C1=O (centres undefined),-7,-92,114,99,i,1.1,-1.4
